A488 fluor = compound fluoresces in the A488 spectral region. compound autofluorescence, A488 spectral region, dye equivalency; stronger effect = higher value. max dye equivalency, M. hit rate 0.1% among 59,000; active = above 10 nM dye equivalent; inconclusive = 1 to 10 nM; inactive = 1 nM or less; about half of its hits are not listed in these tables;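 note: highest value over a series up to 38 µM; compound alone in buffer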
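Compounds pin-transferred into 100 mM Tris buffer, pH 8.0, incubated 15 min at room temperature, then imaged with 480 nm excitation/540 nm emission filters. Fluorescence converted to Alexa 488 dye-equivalent concentration via an on-plate six-point A488 standard curve.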
TSHR agonist = agonists of human thyroid stimulating hormone receptor; P16473; HEK293-CNG-TSHR cells (CNG channel as cAMP sensor), membrane potential dye, cAMP; Potency, µM (series often up to 57.1 µM), for inactives: at the highest dose activation, most hits filed as activators; hit rate 0.48% among 73,000; active = well fitted activation curve of enough size with the parental cells flat; inconclusive = any curve in the parental cells; inactive = parental cells flat and receptor cells flat or falling; note: potency is the fitted concentration of half-maximal effect; % of control where 0% means no effect; weak receptor curves with flat parental cells got no call and are not listed
Target sequence (P16473 whole entry, looked up): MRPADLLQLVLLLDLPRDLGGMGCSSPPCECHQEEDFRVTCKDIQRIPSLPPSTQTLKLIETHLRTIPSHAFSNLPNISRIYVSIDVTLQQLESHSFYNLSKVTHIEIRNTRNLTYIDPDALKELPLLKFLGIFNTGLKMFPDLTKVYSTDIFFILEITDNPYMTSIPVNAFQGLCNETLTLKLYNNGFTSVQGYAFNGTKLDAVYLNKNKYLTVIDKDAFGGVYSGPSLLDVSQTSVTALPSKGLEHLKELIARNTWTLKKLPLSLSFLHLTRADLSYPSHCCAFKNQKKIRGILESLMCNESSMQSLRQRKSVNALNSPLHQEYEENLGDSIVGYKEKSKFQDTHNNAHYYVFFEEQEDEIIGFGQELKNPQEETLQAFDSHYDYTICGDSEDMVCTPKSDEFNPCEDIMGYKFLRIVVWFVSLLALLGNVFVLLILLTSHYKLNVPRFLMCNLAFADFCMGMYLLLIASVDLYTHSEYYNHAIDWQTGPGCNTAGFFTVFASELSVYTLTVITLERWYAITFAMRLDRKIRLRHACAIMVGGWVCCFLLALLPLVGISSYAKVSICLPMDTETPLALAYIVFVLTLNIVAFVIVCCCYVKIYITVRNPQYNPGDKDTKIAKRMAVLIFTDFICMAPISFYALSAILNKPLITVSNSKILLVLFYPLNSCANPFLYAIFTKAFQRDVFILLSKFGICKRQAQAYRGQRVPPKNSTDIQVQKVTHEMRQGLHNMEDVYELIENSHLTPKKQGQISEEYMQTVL
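HEK 293 cells stably expressing TSHR and a modified CNG channel, with CNG-only parental cells as counterscreen, were preloaded 60 min at room temperature with membrane potential dye containing 100 uM RO 20-1724. Compound exposure was 30 min, and depolarization was read as fluorescence at 590 nm.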
A647 fluor = A647 region autofluorescence; Compound fluorescence, A647 channel (570/671 nm), Tris buffer; max dye-equivalent concentration, M; 59,000 tested, under 10 active; AID 592; active means above 1 µM dye equivalent; inconclusive means 0.1 to 1 µM; inactive means 0.1 µM or less;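 note: values scaled relative to a standard on each plate; highest value over a series up to 38 µM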
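Tris 100 mM pH 8.0; cpd + A647 stds pin-transferred; 15 min RT; CCD imager, ex 570/em 671. Output = A647-equivalent conc. per cpd conc.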
AID923 = qHTS Assay for Allosteric/Competitive Inhibitors of Caspase-1: Spectroscopic Profiling in AFC Spectral Region; compound fluorescence, AFC spectral region (405/520 nm); almost no hit is shown here; Potency, µM (titrated, usually from 57.5 µM), for the others: at the highest dose fluorescence increase, hits mostly activators; hit rate 1.1% among 75,000; AID 923, 2007; active = well fitted activation curve with a large enough effect; inconclusive = small, poorly fitted or top-dose-only effect;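 note: potency is the fitted concentration of half-maximal effect; 0% is about no effect; scaled to a free AFC standard on each plate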
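Compound autofluorescence profiled at 405 nm ex/520 nm em during kinetic caspase 1 run (50 nM enzyme, 5 uM Ac-WEHD-AFC, HEPES pH 7.5, 10 mM DTT). Titration up to 57 uM; baseline from regression intercept, normalized to AFC standard curve.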
Resorufin autofl = resorufin region autofluorescence; Compound fluorescence, resorufin region 547/598 nm, buffer; stronger effect = higher value; max dye-equivalent concentration, M; hit rate 0.04% among 59,000; AID 588; active = above 10 nM dye equivalent; inconclusive = 1 to 10 nM; inactive = 1 nM or less; a few of its hits are not listed in these tables; note: highest value over a series up to 38 µM
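Intrinsic fluorescence profiled in the resorufin window (ex 547 nm, em 598 nm) after 15 min at room temperature in pH 8.0 Tris buffer (100 mM); responses normalized against a six-point resorufin standard series as dye-equivalent concentration.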
The depositor's hits bear a star; i = inactive; ? = inconclusive; nt = no result given; & = joins results of further samples; [ ] = another dose, or the depositor's remark.

canonical_smiles | A647 fluor | TSHR agonist | AID923 | A488 fluor | Resorufin autofl
CCOC(=O)Cc1csc(SCC(=O)N2CCN(c3ccc(OC)cc3)CC2)n1 | 8.6e-09 | 4% | -2.8% | i | i
c1ccc(C(c2ccccc2)N2CCC3(CCNCC3)CC2)cc1 | 1e-09 | 2% | 0.5% | i | i
Cn1cnnc1SC(C(=O)c1ccccc1)c1ccccc1 (stereo not drawn) | 3.8e-08 | 4% | 0.2% | i | i
NC(=O)CN1CCN(C(=O)NC2CCCCC2)CC1 | nt | ? | -1.4% | nt | nt
CC1CCN(c2nc3c(c(=O)n(C)c(=O)n3C)n2CCSc2nc3ccccc3o2)CC1 | 1e-09 | 9% | -0.4% | i | i
Cc1csc(SCC(=O)NCc2cccs2)n1 | 1.8e-08 | 6% | 0.9% | i | i
O=C(OCC(=O)N1CCN(C(=O)COC(=O)c2ccncc2)CC1)c1ccncc1 | 6.6e-09 | ? | 2.2% | i | i
COC(=O)c1cc(-c2ccccc2)n(CC(=O)O)c1C | 1e-09 | 2%[11.4 µM] | -0.4% | i | i
COC(=O)c1ccc2c(=O)[nH]c(CN3c4ccccc4CC3C)nc2c1 (stereo not drawn) | 2.4e-09 | -6% | 3.4% | i | i
COc1ccc(NC(=O)CNS(=O)(=O)c2cccs2)cc1 | 1e-09 | 5%[11.4 µM] | 0.0% | i | i
O=C1C2=C(SCCS2)C(=O)N1CCCO | nt | 5% | 2.8% | nt | nt
CCCOc1c(OC)cccc1C1CC(=O)Nc2cc3c(cc21)OCO3 (stereo not drawn) | 1.5e-08 | ? | -1.3% | i | i
Cc1cccc(-n2ccnc2SCC(=O)Nc2cc(C)on2)c1 | 1.3e-09 | 1%[11.4 µM] | 0.0% | i | i
COC(=O)C(NC(C)=O)(Nc1ccc(Br)cn1)C(F)(F)F (stereo not drawn) | 1.2e-09 | nt | nt | i | i
Nc1nc(NC(=O)c2cccc(S(=O)(=O)N3CCCCCC3)c2)nc(-c2ccccc2)n1 | 1e-09 | nt | 1.7% | i | i
COc1cc2nncc(SCc3ccc(Cl)c(Cl)c3)c2cc1OC | 1e-09 | 1%[11.4 µM] | -2.0%[11.5 µM] | i | i
Cc1oc2cc3c(C(=O)N4CCN(C)CC4)c(C)oc3cc2c1C(=O)N1CCN(C)CC1 | 5.2e-09 | 6% | 0.0% | i | i
COc1ccc(-n2c(C)nc3cc(C(=O)NCc4ccco4)ccc32)cc1 | 3.3e-08 | 3%[11.4 µM] | -0.7% | i | i
COc1ncc2nc(-c3cc(F)cc(F)c3)c(=O)n(C)c2n1 | 1e-09 | 0% | 4.2% | i | i
CCOc1ccc(NC(=O)CSc2nnc(-c3ccco3)n2C)cc1 | 6.8e-09 | 5% | -1.5% | i | i
Cc1cccc(CNc2cc(-c3cccc(NS(C)(=O)=O)c3)ncn2)c1 | 7.6e-09 | 17% | -3.1% | i | i
CCc1cc2c(SCC(=O)C(C#N)=C3N(C)c4ccccc4N3C)ncnc2s1 | 1e-09 | 8% | 1.1% | i | i
CCN(C1CCCCC1)S(=O)(=O)c1cn(C)c(=O)n(C)c1=O | nt | ? | -4.0% | nt | nt
CCOC(=O)c1[nH]c2ccccc2c1NC(=O)c1ccco1 | 4.7e-09 | 18%[11.4 µM] | -0.5% | i | i
O=C(CC(c1ccccc1)c1ccco1)N1CCOCC1 (stereo not drawn) | 1e-09 | nt | nt | i | i

Single records, as listed above. Order of screens: A647 fluor | TSHR agonist | AID923 | A488 fluor | Resorufin autofl
Record of CCOC(=O)Cc1csc(SCC(=O)N2CCN(c3ccc(OC)cc3)CC2)n1 = 8.6e-09 | 4% | -2.8% | i | i
Record of O=C1C2=C(SCCS2)C(=O)N1CCCO = nt | 5% | 2.8% | nt | nt
Record of Cc1cccc(-n2ccnc2SCC(=O)Nc2cc(C)on2)c1 = 1.3e-09 | 1%[11.4 µM] | 0.0% | i | i

Remaining list, next part:
canonical_smiles | A647 fluor | TSHR agonist | AID923 | A488 fluor | Resorufin autofl
CC(NC(=O)c1ccc2c(c1)OCO2)C1CCCO1 (stereo not drawn) | nt | 9% | 3.0% | nt | nt
CCCCC(=O)Nc1c(O)c2ccccc2[nH]c1=O | 1.2e-09 | nt | nt | i | i
CN(C)Cc1ccccc1-c1nc(NCc2ccccc2)c2ccccc2n1 | 1e-09 | ? | 1.7% | i | i
Cc1noc(C)c1C(=O)OCC(=O)c1cc(C)n(Cc2ccccc2Cl)c1C | 3.2e-09 | ? | 1.3% | i | i
Cc1ccc(S(=O)(=O)Nc2ccc3ncccc3c2)cc1 | 1e-09 | 25% | 0.7% | i | i
O=[n+]1cc(-c2ccc(F)cc2)n([O-])c2c1CCC2 | 5e-08 | -1% | 3.1% | i | i
O=C(Nc1ccc(NC(=O)c2cccs2)cn1)c1ccco1 | 1.4e-08 | -2% | -0.3% | i | i
Cc1c(O)c(Br)c(C)c(O)c1Br (tested in a mixture with another compound) | 3.6e-08 | -2%[11.4 µM] | 0.0%[11.5 µM] | i | i
COc1ccc2nc(NC(=O)CSc3nnc(-c4ccoc4C)n3C)sc2c1 | 4.2e-09 | 2% | -1.1% | i | i
O=C(Nc1ccccc1C(=O)O)c1cccc(NC(=O)c2ccc(Br)o2)c1 | 1e-09 | 8% | -0.8% | i | i
Nc1nnc(CCCCc2cccs2)o1 | nt | ? | 0.7% | nt | nt
CC(=O)c1ccc(NC(=O)c2ccn[nH]2)cc1 | 1.6e-08 | -2% | 0.9% | i | i
C=CCn1cc(C(=O)NCC2CCCO2)c(=O)c2cc(S(=O)(=O)N3CCCCCC3)ccc21 (stereo not drawn) | 3.1e-09 | ? | -0.7% | i | i
CC(C)Nc1nc(NC(C)C)nc(N(C)n2cnnc2)n1 | 9.3e-08 | nt | nt | i | i
Cc1ccc(NC(=O)Cn2nc(C)c3ccccc3c2=O)c(C)c1 | 2.6e-08 | -2% | 0.3% | i | i
CCN1CCN(c2c(Cl)cccc2NC(=O)c2ccco2)CC1 | 2.4e-09 | 8% | 0.3% | i | i
COc1ccc(NC(=O)Cc2nnc(SCC(=O)Nc3cc(C)ccc3OC)n2C)cc1 | 1.5e-08 | -10% | 0.5% | i | i
CCOC(=O)c1csc(NC(=O)c2ccc(S(=O)(=O)N(CC)CC)cc2)n1 | 4.3e-08&1.5e-08 | 1%&-10% | -0.2%&-1.2% | i | i
Cc1cc(NC(=O)CSc2nnc(COc3cccc(C)c3C)n2C)no1 | 1e-09 | -4% | -0.8% | i | i
CC1(C)C/C(=C(/C#N)C(N)=O)CCO1 | 1e-09 | nt | nt | i | i
O=c1c2[nH]c3ccc(F)cc3c2ncn1C1CCCCC1 | 1e-09 | 0% | 2.4% | i | i
CCc1[nH]nc2c1C(C(C)C)C(C#N)=C(N)O2 (stereo not drawn) | 7.5e-09 | -8% | 0.0% | i | i
O=C(Nc1ccc(Cl)cc1)NC1CCCC1Cc1ccco1 (stereo not drawn) | 4.6e-08 | ? | -0.4% | i | i
CN(C(=O)C1CCCO1)c1nnc(-c2cnccn2)s1 (stereo not drawn) | 1e-09 | -3% | 0.3% | i | i
Cc1cc(CNC(=O)[C@H]2C[C@@H]2[C@H](NP(=O)(c2ccccc2)c2ccccc2)c2ccccc2)nn1C | nt | 7% | -0.3% | nt | nt

The results go on:
canonical_smiles | A647 fluor | TSHR agonist | AID923 | A488 fluor | Resorufin autofl
COC(=O)CCc1c(C)nn(-c2ccccc2)c1C | 3.2e-08 | ? | -0.9% | i | i
COCCn1c(SCC(=O)Nc2ncc(C)s2)nc2sc3c(c2c1=O)CCC3 | 3.2e-09 | -8% | 0.1% | i | i
CCOc1ccc(C2/C(=C(/O)c3ccc(F)cc3)C(=O)C(=O)N2CCCN(C)C)cc1 (stereo not drawn) | 9.7e-09 | nt | nt | i | i
CC(=O)c1cccc(NC(=O)c2oc(C)nc2C)c1 | 2e-08 | -3% | -1.7% | i | i
Cc1cc(N2CCOCC2)nc(SCC(=O)c2ccc(Cl)cc2)n1 | 3.4e-09 | ? | -0.8% | i | i
CCOC(=O)c1ccccc1NC(=O)c1cccc2c1C(=O)N(C1CCN(C(=O)OCC)CC1)C2 | nt | 5% | -1.2% | nt | nt
O=C1CC(N2CCN(c3nc4ccccc4s3)CC2)C(=O)N1Cc1cccs1 (stereo not drawn) | 7.4e-09 | ? | -2.2% | i | i
CCOC(=O)Cn1c(=N)n(Cc2ccccc2F)c2ccccc21 | 1e-09 | 8% | -0.4% | i | i
CC1=CC(C)(C)Nc2ccc(OC(=O)c3cccnc3)cc21 | nt | -11%[11.4 µM] | -1.4% | nt | nt
C[N+]1(C)CCc2cc3c(cc2[C@@H]1[C@@H]1C(=O)Oc2c1ccc1c2OCO1)OCO3 | nt | -2%&5% | 16%&16% | nt | nt
Cc1nc2ccccc2c(=O)n1NC(=O)c1c(O)c2ccccc2n(C)c1=O | nt | -4% | 0.1% | nt | nt
CSc1ccccc1NC(=O)c1noc2c1CCC2 | 2e-08 | 6% | 2.4% | i | i
O=C(O)c1ccc(-c2ccccc2C(F)(F)F)o1 | 2.4e-08 | 3% | 0.6% | i | i
c1ccc(-c2[nH]ncc2-c2nc3ccccc3[nH]2)cc1 | 3.3e-08 | -1% | -1.0% | i | i
NC(=O)CSc1nc(-c2ccccc2Cl)ns1 | 2e-08 | -2% | 2.9% | i | i
Cc1ccc(N2C(=O)CC(Cn3nc(C)cc3C)C2=O)cc1 (stereo not drawn) | 2.3e-08 | nt | nt | i | i
CC(=O)C1=C(O)C(=O)N(Cc2ccco2)C1c1ccc2c(c1)OCO2 (stereo not drawn) | 1e-09 | 8% | 1.1% | i | i
O=C(COC(=O)C1CCCN1S(=O)(=O)c1ccc(Cl)cc1)Nc1ccc2c(c1)OCO2 (stereo not drawn) | 2.9e-08 | 2% | -0.6% | i | i
Cn1cccc1C(=O)N1CCC2(CC1)CCN(C(c1ccccc1)c1ccccc1)CC2 | 1e-09 | 2% | 9.8% | i | i
NC(=O)CCS(=O)(=O)c1ccccc1 | nt | 7% | -1.2% | nt | nt
COC(=O)c1cc(NC(=O)CSc2nc(C)cc(=O)[nH]2)cc(C(=O)OC)c1 | 2.7e-08 | -2% | -2.1% | i | i
Cc1cc(NC(=O)c2cc(-c3cccs3)on2)no1 | 1e-09 | -8% | 0.4% | i | i
Cc1csc(=N)n1-c1ccc(Cl)cc1 | 1e-09 | -11% | 0.8% | i | i
CCC(C)n1cnc2c(c1=O)c1nc3ccccc3nc1n2Cc1ccc2c(c1)OCO2 (stereo not drawn) | 1e-09 | -19% | 7.1% | i | i
CCc1ccccc1NC(=O)CSc1nnc([C@@H]2CCCN2C(=O)OC(C)(C)C)o1 | 1e-09 | 3% | -0.1% | i | i

(continued)
canonical_smiles | A647 fluor | TSHR agonist | AID923 | A488 fluor | Resorufin autofl
CCNC(=O)NC(=O)COc1ccccc1C#N | 3.2e-08 | 5%[11.4 µM] | -0.7% | i | i
O=C(CSc1nc2ccccc2c(=O)[nH]1)N1CCCCCC1 | 3e-08 | ? | -0.1% | i | i
CCCCN1CCC(n2c(=O)[nH]c3ccccc32)CC1 | 4.2e-08 | nt | -0.6% | i | i
COc1ccc(CNC(=O)c2cccc(N(C)C)c2)cc1 | 1e-09 | ? | -0.8% | i | i
COc1ccc(-c2cc(C(=O)N(C)Cc3ccccc3)no2)cc1OC | 1e-09 | -2%[11.4 µM] | 0.7% | i | i
CCc1ccccc1NC(=O)CSc1nnc([C@@H](NC(=O)OC(C)(C)C)C(C)CC)o1 (stereo partly drawn) | 6.1e-09 | nt | 1.4% | i | i
Nc1nnc(-c2ccco2)s1 | nt | 6% | 2.1% | nt | nt
Cc1cc(C(=O)Nc2sc3c(c2C#N)CCC(C)C3)cs1 (stereo not drawn) | 2.8e-08 | 5% | 1.8% | i | i
ON(CCc1ccncc1)Cc1ccccc1 | 1.8e-08 | -1%[11.4 µM] | 0.1%[11.5 µM] | i | i

Source: PubChem BioAssay (National Center for Advancing Translational Sciences (NCATS))

This is a subset; count on the stated rates, not on these rows.
